B2AR ag: beta2AR agonists driving receptor internalization, primary screen, cell-based, FAP fluorogen, flow cytometry; Beta-2 adrenergic receptor (Homo sapiens), P07550; Am2.2-beta2AR cells; reference of the scale not given here; response, % (concentration not given with the values); 0.43% of 340,000 active;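 active = response above a set limit, near 3 SD of response in nonfluorescent compounds, cut at about 42% in these data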;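 also: stock transfer was 100 nL into about 11 µL; a reference agonist was the positive control; negative values mostly stem from fluorescent compounds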
Target sequence (P07550 whole entry, looked up): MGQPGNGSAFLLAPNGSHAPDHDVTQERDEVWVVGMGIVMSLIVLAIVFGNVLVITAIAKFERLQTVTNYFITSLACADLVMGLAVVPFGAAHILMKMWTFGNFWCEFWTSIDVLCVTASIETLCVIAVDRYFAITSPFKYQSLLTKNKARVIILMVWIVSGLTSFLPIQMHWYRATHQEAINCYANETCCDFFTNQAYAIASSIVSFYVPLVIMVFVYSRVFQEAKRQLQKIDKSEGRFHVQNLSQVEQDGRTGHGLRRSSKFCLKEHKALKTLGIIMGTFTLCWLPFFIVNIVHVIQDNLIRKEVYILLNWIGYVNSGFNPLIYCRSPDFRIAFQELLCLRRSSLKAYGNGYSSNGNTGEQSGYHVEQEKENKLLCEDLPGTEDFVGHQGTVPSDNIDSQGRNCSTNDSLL
LANA-H2A inh: blockers of LANA interaction with H2A/H2B – biochemical, FP readout, HTS, primary screen. 0.6% of 320,000 active. inhibition, % (no concentration beside the values). Protein LANA1 (Human herpesvirus 8 type P (isolate GK18)), Q9QR71. cell-free LANA-H2A/H2B peptide, fluorescence polarization. AID 2629, 2010; in the data active = inhibition mostly above about 10%, no sharp cut-off; inactive = mostly below about 6.7%;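 also: stock transfer was 7.5 nL into about 10 µL; 0% = median of vehicle wells and 100% = median of positive control wells; one replicate is shown; the record names a cut of 25% in any replicate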
Calb FLC: C. albicans growth inhibition with fluconazole, primary screen, CaCi-2 strain, Alamar Blue fluorescence | 0.57% of 300,000 active | AID 1979, 2009 | growth inhibition, % (no concentration beside the values) | C. albicans CaCi-2 (fluconazole-resistant clinical isolate) + fluconazole, 48 h;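 active = most replicates above 75%; inconclusive = exactly half above 75%; inactive = most below 75%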;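 also: all wells also contain fluconazole at 8 µg/ml as a sub-toxic cotreatment; 0% = median of DMSO wells and 100% = median of geldanamycin control wells; wells of about 8 µL received 7.5 nL stock; the first replicate is given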
Vif TR-FRET: inhibitors of Vif binding to APOBEC3G peptide, primary screen, biochemical, TR-FRET, GST-Vif 1-94, biotin-A3G peptide, dose response retest (AID 1117319) | inhibition, %; hits with a dose series show IC50 in µM | 0.57% of 260,000 active | TR-FRET GST-Vif / biotin-A3G peptide binding; higher % means a stronger effect; test concentration not given here; strong numbers were not always called active | Virion infectivity factor (Human immunodeficiency virus type 1 group M subtype B (isolate …;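 active = above the screen mean plus three standard deviations and confirmed in dose response; inconclusive = results disagree or hit not tested in dose response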;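 also: Vif residues 1-94 fused to GST binding biotinylated APOBEC3G peptide 110-148; 0% = full assay without inhibitor and 100% = GST in place of GST-Vif; retest series ran down from 100 µM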
RanGTP-Imp inh: inhibitors of RanGTP-importin-beta interaction, primary screen, biochemical, FRET, CFP-Ran, YFP-importin-beta, homogeneous | Ran GTPase (GTP-bound) - importin-beta complex | cell-free CFP-Ran/YFP-importin-beta FRET ratio | inhibition, % (no concentration beside the values) | 1.1% of 300,000 active | AID 2216, 2009;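 active = most replicates above 15%; inconclusive = exactly half above 15%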;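 also: 0% = DMSO wells and 100% = Ran loaded with GDP instead of GTP; wells of about 40 µL received 100 nL stock; the first replicate is given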
HNF4A DNA FP: change in binding of human HNF4A to DNA, primary screen, biochemical, fluorescence polarization, FITC-DNA. Hepatocyte nuclear factor 4-alpha (Homo sapiens), P41235. 1 h. activity change, % at 10 µM. 0.3% of 360,000 active. AID 1224865, 2016; in the data active = activity change above about 30%, passing the limit was not always enough;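 also: controls were the assay level and a saturating level of protein; the project sought stronger binding though the title names inhibitors; some compounds called inactive have numbers as strong as hits; positive values seem to mean higher polarization but the record does not say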
Target sequence (P41235 whole entry, looked up): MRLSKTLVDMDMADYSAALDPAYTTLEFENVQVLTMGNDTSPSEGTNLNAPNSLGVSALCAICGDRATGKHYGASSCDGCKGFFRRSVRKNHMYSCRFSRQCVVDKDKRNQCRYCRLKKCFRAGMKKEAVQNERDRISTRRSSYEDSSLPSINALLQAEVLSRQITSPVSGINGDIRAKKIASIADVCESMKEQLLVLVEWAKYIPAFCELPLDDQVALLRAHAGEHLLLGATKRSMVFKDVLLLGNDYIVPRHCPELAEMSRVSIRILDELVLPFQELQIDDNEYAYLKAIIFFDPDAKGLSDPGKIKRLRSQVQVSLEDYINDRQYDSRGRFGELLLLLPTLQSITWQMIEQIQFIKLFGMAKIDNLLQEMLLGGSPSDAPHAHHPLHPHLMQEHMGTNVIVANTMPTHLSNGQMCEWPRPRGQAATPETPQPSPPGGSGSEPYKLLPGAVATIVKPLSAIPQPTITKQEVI
ALR inh: inhibitors of human ALR sulfhydryl oxidase, primary screen, biochemical, H2O2 detection, HRP-luminol luminescence, single point; FAD-linked sulfhydryl oxidase ALR (Homo sapiens), P55789; purified ALR, DTT oxidation; inhibition, % (test concentration not listed); 3.8% of 290,000 active; AID 485317, 2010;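 active = mean and each replicate at 75% or more; inconclusive = only one of the two met; inactive = neither met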;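 also: stock transfer was 7.5 nL into about 7.5 µL; 0% = neutral wells and 100% = wells with inactivated enzyme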
Target sequence (P55789 whole entry, looked up): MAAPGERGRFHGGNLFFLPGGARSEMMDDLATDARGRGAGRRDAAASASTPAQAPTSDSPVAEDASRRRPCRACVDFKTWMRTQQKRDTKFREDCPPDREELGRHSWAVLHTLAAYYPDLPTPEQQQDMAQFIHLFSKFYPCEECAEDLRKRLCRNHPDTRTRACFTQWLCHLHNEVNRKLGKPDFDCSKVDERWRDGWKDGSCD
* hit, by the source's call; & = joins results of further samples. Random draw from the library; about 6.3% have a hit in one of these screens.

For CC1=NN(C(N)=S)C(=O)C1N=Nc1ccc(C)cc1C (stereo not given) the results were LANA-H2A inh -2.7, Calb FLC 24, Vif TR-FRET 4%, RanGTP-Imp inh 0.2 and ALR inh 94*.
`Cn1ncc(C#N)c1/N=C/N(Cc1ccccc1)Cc1ccccc1` gave B2AR ag -12, LANA-H2A inh 0.2, Calb FLC 22, Vif TR-FRET -1%, RanGTP-Imp inh 3.6, HNF4A DNA FP -0.3 and ALR inh -2.
For O=C(CSc1nnc(Cc2ccccc2)n1Cc1ccco1)NC12CC3CC(CC(C3)C1)C2 the results were B2AR ag -6, LANA-H2A inh 3.0, Calb FLC -36, Vif TR-FRET -3%&-9%, RanGTP-Imp inh 6.3, HNF4A DNA FP 0.0 and ALR inh -7.
For CCOC(=O)C1CCN(CC(=O)c2c(C)n(C)c3ccc(OC)cc23)CC1 the results were B2AR ag 8, LANA-H2A inh 1.9, Calb FLC -7, Vif TR-FRET -4%, RanGTP-Imp inh -1.0, HNF4A DNA FP -0.8 and ALR inh -31.
CCOc1ccc(NC(=O)N(C2CCCCC2)C(C)c2ccncc2)cc1 (stereo not given) was read as B2AR ag -3, LANA-H2A inh 0.8, Calb FLC -22, Vif TR-FRET -4%, RanGTP-Imp inh 4.6, HNF4A DNA FP 0.9 and ALR inh -17.
Screening NC(=O)[C@@H]1CCCCNc2c(F)cc([N+](=O)[O-])cc2C(=O)N[C@@H](CCCN=C(N)N)C(=O)NCC(=O)N1 returned B2AR ag -3, LANA-H2A inh 1.9, Calb FLC -2, Vif TR-FRET 23%, RanGTP-Imp inh -1.5, HNF4A DNA FP 1.1 and ALR inh -7.
Screening O=C(CN(c1cccc(C(F)(F)F)c1)S(=O)(=O)c1ccc(Cl)c([N+](=O)[O-])c1)NCc1ccccc1Cl returned B2AR ag 23, LANA-H2A inh -3.8, Calb FLC -7, Vif TR-FRET 2%, RanGTP-Imp inh -2.3, HNF4A DNA FP 2.0 and ALR inh -12.
For CCn1c(CN2c3ccccc3Sc3ccccc32)n[nH]c1=S the results were B2AR ag 14, LANA-H2A inh -1.1, Calb FLC -17, RanGTP-Imp inh -2.8, HNF4A DNA FP -1.4 and ALR inh 98*.
`CC(C)(C)c1ccc(C(=S)N2CCN(c3ccccc3)CC2)cc1` gave B2AR ag 9, LANA-H2A inh 0.9, Calb FLC 3, Vif TR-FRET inconclusive, RanGTP-Imp inh 0.1, HNF4A DNA FP 8.2 and ALR inh -1.
`Cc1ccc(C(C)NC(=O)c2cccs2)cc1C` (stereo not given) gave B2AR ag -1, LANA-H2A inh -3.6, Calb FLC -1, RanGTP-Imp inh -0.3, HNF4A DNA FP -0.1 and ALR inh -1.
Cc1ccc(OCCNS(=O)(=O)c2ccc(Cl)cc2)cc1 was read as B2AR ag -3, LANA-H2A inh 1.4, HNF4A DNA FP 2.4 and ALR inh 3.
For COc1ccc(C(=O)OCC(=O)Nc2sccc2C(N)=O)cc1[N+](=O)[O-] the results were B2AR ag 13, LANA-H2A inh 2.4, Vif TR-FRET 0%, HNF4A DNA FP -3.9 and ALR inh 0.
COc1ccc(CNC(=O)C(c2cccs2)N(Cc2ccco2)C(=O)Cc2cccs2)cc1 (stereo not given) was read as B2AR ag 6, LANA-H2A inh -3.5, Calb FLC 2, Vif TR-FRET 10%, RanGTP-Imp inh -1.7, HNF4A DNA FP -0.5 and ALR inh -15.
For CCCCN(C(=O)CCCc1nc2ccccc2s1)c1c(N)n(CCCC)c(=O)[nH]c1=O the results were B2AR ag 4, LANA-H2A inh -0.1, Calb FLC -5, Vif TR-FRET -6%, RanGTP-Imp inh 8.3, HNF4A DNA FP 1.2 and ALR inh -6.
For CCn1c(SCC(=O)Nc2sc3c(c2C#N)CCC(C(C)(C)C)C3)nnc1-c1ccco1 (stereo not given) the results were B2AR ag -8, LANA-H2A inh -3.9, Calb FLC -32, Vif TR-FRET 4%, RanGTP-Imp inh -21, HNF4A DNA FP -0.5 and ALR inh 12.
For CCCNC(=O)NC(=O)CSc1nncs1 the results were B2AR ag -1, LANA-H2A inh 4.8, Calb FLC -1, Vif TR-FRET 8%, RanGTP-Imp inh -1.8, HNF4A DNA FP -2.6 and ALR inh 2.
CCCCOc1ccc(C(=O)N/C(=C/C=C/c2ccccc2)C(=O)NC)cc1 was read as B2AR ag -6, LANA-H2A inh -4.4, Calb FLC 26, Vif TR-FRET 12%, RanGTP-Imp inh 0.0, HNF4A DNA FP 3.1 and ALR inh -1.
CN(C)c1nc(SCC#N)nc(N2CCOCC2)n1 was read as B2AR ag -5, LANA-H2A inh 1.9, Calb FLC 2, Vif TR-FRET 7%, RanGTP-Imp inh 0.9, HNF4A DNA FP 43* and ALR inh -11.
For CNC(=O)c1cc(C(=O)c2ccc(C(F)(F)F)cc2F)c[nH]1 the results were B2AR ag 5, LANA-H2A inh -0.2, Calb FLC 5, Vif TR-FRET 2%, RanGTP-Imp inh -3.6, HNF4A DNA FP -3.6 and ALR inh -1.
For CNC(=O)c1c(NC(=O)CCS(=O)(=O)c2ccc(Cl)cc2)sc2c1CCN(C(=O)OC)C2 the results were B2AR ag 2, LANA-H2A inh -1.6, Calb FLC 19, Vif TR-FRET -8%, RanGTP-Imp inh 7.4, HNF4A DNA FP 5.0 and ALR inh -12.
Screening Cc1ccc(S(=O)(=O)N2C[C@@H]3[C@H]4CC[C@H](C4)[C@@H]3[C@@H](C)[C@@H]2c2ccn(Cc3ccccc3)c2)cc1 returned B2AR ag 2, Vif TR-FRET -3% and HNF4A DNA FP -0.9.
Screening Cc1cccn2cc(CCNC(=O)c3cccs3)nc12 returned B2AR ag -19, LANA-H2A inh -3.0, Calb FLC -3, RanGTP-Imp inh -2.4, HNF4A DNA FP 3.8 and ALR inh 6.
Screening Cc1ccc(CCNC(=O)CS(=O)Cc2nc(-c3ccccc3F)oc2C)cc1 (stereo not given) returned B2AR ag -4, LANA-H2A inh 0.0, Calb FLC -3, Vif TR-FRET -1%, RanGTP-Imp inh 4.3, HNF4A DNA FP 0.1 and ALR inh 99*.
For CN(C)c1ccc(CNC(=O)C2CCN(S(=O)(=O)c3ccc4c(c3)oc(=O)n4C)CC2)cc1 the results were B2AR ag -9, LANA-H2A inh -15, Calb FLC -1, Vif TR-FRET -3%, RanGTP-Imp inh 4.2, HNF4A DNA FP -0.8 and ALR inh 51.
Cc1ccc(N=Nc2ccc(O)c(P(=O)(c3ccccc3)c3ccccc3)c2)cc1 was read as B2AR ag 6, LANA-H2A inh 7.2, Calb FLC -2, Vif TR-FRET -11%, RanGTP-Imp inh 9.1, HNF4A DNA FP -4.7 and ALR inh -8.
Screening COc1ccc(OC)c(CN2CCC(CNC(=O)Nc3cccc(Cl)c3)CC2)c1 returned B2AR ag 6, LANA-H2A inh -0.5, Calb FLC -5, Vif TR-FRET 32%, RanGTP-Imp inh -1.8 and HNF4A DNA FP 4.1.
Screening CCC(=O)N1CCc2cc(S(=O)(=O)CCC(=O)Nc3cccc(F)c3)ccc21 returned B2AR ag -9, LANA-H2A inh 0.2, Calb FLC 0, Vif TR-FRET 1%, RanGTP-Imp inh inconclusive, HNF4A DNA FP 0.2 and ALR inh 98*.
`COc1ccc2cc(C3CC(c4cccs4)=NN3C(C)=O)c(Cl)nc2c1` (stereo not given) gave B2AR ag 6, LANA-H2A inh -2.3, Calb FLC -5, Vif TR-FRET -7%, RanGTP-Imp inh 1.4, HNF4A DNA FP 2.5 and ALR inh -15.
Cc1nn(Cc2ccc(Cl)cc2)c(C)c1NC(=O)CCCn1nc(C)c([N+](=O)[O-])c1C was read as B2AR ag -3, Calb FLC -12, Vif TR-FRET -4%, RanGTP-Imp inh 4.8 and HNF4A DNA FP -1.7.
For COc1ccc(C)cc1-n1nc2ccccc2n1 the results were B2AR ag -4, LANA-H2A inh 0.8, Calb FLC -25, Vif TR-FRET 0%, RanGTP-Imp inh -1.2, HNF4A DNA FP 1.2 and ALR inh 29.
`C=CCn1c(SCC(=O)Nc2nccs2)nnc1-c1cc2cccc(OC)c2o1` gave B2AR ag 5, LANA-H2A inh -4.9, Calb FLC -15, Vif TR-FRET -10%, RanGTP-Imp inh 0.4, HNF4A DNA FP 0.0 and ALR inh 0.
For C/C(=N\Nc1ccc(F)cc1F)c1ccc(Br)s1 the results were B2AR ag 3, LANA-H2A inh -3.4, Calb FLC 102*, Vif TR-FRET -1%, RanGTP-Imp inh -3.9, HNF4A DNA FP -0.4 and ALR inh -27.
Screening NC(=O)CCN1CCC(c2nc3ccccc3s2)CC1 returned B2AR ag 5, LANA-H2A inh -0.3, Calb FLC 12, RanGTP-Imp inh 6.0, HNF4A DNA FP 0.3 and ALR inh -1.
O=C(CSCc1c(F)cccc1Cl)NCCc1ccccc1 was read as B2AR ag -9, LANA-H2A inh -2.9, Calb FLC -5, Vif TR-FRET 2%, RanGTP-Imp inh -1.6 and HNF4A DNA FP -5.1.
C[C@H]1C(=O)N(C)CCN1Cc1cn(C)nc1-c1ccc(Oc2ccccc2)cc1 was read as B2AR ag -12, LANA-H2A inh -0.4, Calb FLC 3, RanGTP-Imp inh -2.8, HNF4A DNA FP -1.1 and ALR inh -14.
For CCC(=O)N1CCc2cc(S(=O)(=O)CCC(=O)NC3CCCCC3)ccc21 the results were B2AR ag -11, LANA-H2A inh 6.2, Calb FLC 17, RanGTP-Imp inh 2.8, HNF4A DNA FP 0.2 and ALR inh -6.
Screening CCOC(=O)C1CCCN(C(=O)c2ccco2)C1 (stereo not given) returned B2AR ag -1, LANA-H2A inh 4.8, Calb FLC -1, Vif TR-FRET 16%, RanGTP-Imp inh inconclusive, HNF4A DNA FP 2.8 and ALR inh -13.
Screening CC1CCC(NC(=O)CN2C(=O)C3CC=CCC3C2=O)CC1 (stereo not given) returned B2AR ag 16, LANA-H2A inh 4.8, Vif TR-FRET 7% and HNF4A DNA FP -0.6.
For c1ccc(N/N=C2\CCCc3ccccc32)nc1 the results were B2AR ag -3, LANA-H2A inh -1.2, Calb FLC -40, RanGTP-Imp inh 0.1, HNF4A DNA FP 2.8 and ALR inh 41.
O=C(Nc1ccccc1C(=O)Nc1ccncc1)c1cccc([N+](=O)[O-])c1 was read as B2AR ag 14, LANA-H2A inh 2.6, Calb FLC 7, Vif TR-FRET -2%, RanGTP-Imp inh 3.2, HNF4A DNA FP 0.9 and ALR inh 4.
CCn1cc(C(=O)O)c(=O)c2cc(F)c(N3CCN(C(=S)NC(=O)c4ccccc4)CC3)cc21 was read as B2AR ag 3, LANA-H2A inh -1.8, Calb FLC -7, Vif TR-FRET 10%, RanGTP-Imp inh -1.3 and HNF4A DNA FP 0.0.

Gathered by group, the compounds so far containing a CF3 group (2)
Screening O=C(CN(c1cccc(C(F)(F)F)c1)S(=O)(=O)c1ccc(Cl)c([N+](=O)[O-])c1)NCc1ccccc1Cl returned B2AR ag 23, LANA-H2A inh -3.8, Calb FLC -7, Vif TR-FRET 2%, RanGTP-Imp inh -2.3, HNF4A DNA FP 2.0 and ALR inh -12.
For CNC(=O)c1cc(C(=O)c2ccc(C(F)(F)F)cc2F)c[nH]1 the results were B2AR ag 5, LANA-H2A inh -0.2, Calb FLC 5, Vif TR-FRET 2%, RanGTP-Imp inh -3.6, HNF4A DNA FP -3.6 and ALR inh -1.
